Sa growth 42C = S. aureus growth inhibition; S. aureus RN4220 growth, OD600, 20 h, 42 °C; hits give low values; relative growth, % (concentration not given with the values); 170,000 tested, 0.53% active;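 active means growth at 42 °C up to 50% and 20 or more points under that at 30 °C, or under 10% at both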;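 further: 300 nL library stock went into each well; scaled to the means of positive and negative controls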
GIV Gai3 FP = blocks GIV peptide binding to rat Galpha-i3. percent of control (FP), % (no concentration beside the values). 210,000 tested, 0.42% active. Galpha-i3/FITC-GIV peptide fluorescence polarization, 90 min; hits give low values; scaled: aluminum fluoride 0%, vehicle 100%. AID 1224905. P08753;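 active means replicate mean at 85% of control or lower, very high polarization wells dropped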;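 further: wells of about 15 µL received 100 nL stock; the first replicate is given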
Target sequence (P08753 whole entry, looked up): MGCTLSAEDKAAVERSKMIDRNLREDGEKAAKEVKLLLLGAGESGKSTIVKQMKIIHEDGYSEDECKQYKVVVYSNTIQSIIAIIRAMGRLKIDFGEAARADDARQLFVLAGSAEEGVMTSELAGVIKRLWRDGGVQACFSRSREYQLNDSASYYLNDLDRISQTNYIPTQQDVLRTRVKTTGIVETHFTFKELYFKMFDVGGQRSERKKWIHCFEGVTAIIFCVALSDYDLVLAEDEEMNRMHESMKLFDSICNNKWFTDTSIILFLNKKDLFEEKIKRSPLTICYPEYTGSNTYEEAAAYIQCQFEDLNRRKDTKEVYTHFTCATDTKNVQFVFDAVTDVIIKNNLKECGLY
HCMV NEC inh = disrupts HCMV UL50-UL53 complex binding; HTRF UL50-UL53 interaction, normalized percent inhibition; inhibition, % (no concentration beside the values); 190,000 tested, 0.15% active;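 active means both replicates at 50% or more, plus weaker picks with an unusually low signal ratio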;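 further: stock transfer was 100 nL into about 20 µL; 0% = negative control wells and 100% = wells with untagged competitor protein; inactives centre near -12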
Sa growth 42C second temp = recorded beside Sa growth 42C, whose call it bears; relative growth, %; measured here: growth at 30 °C;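 optical density after 20 h as mean of two plates; 100% = untreated growth and lower means inhibition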
The depositor's hits bear a star; nt = no result given; & = joins results of further samples.

Compound	HCMV NEC inh	GIV Gai3 FP	Sa growth 42C	Sa growth 42C second temp
CCN1CCN(C(=O)c2cnn(-c3ccc(F)cc3)c2-n2cccc2)CC1	nt	107	107	97
Cc1noc(COc2ccccc2OCC(N)=O)n1	-12	nt	82	83
COc1ccc2c(CC(=O)NC3CCCCCC3)coc2c1	-3	nt	109	101
Cc1cc(C)nc(SCC(=O)c2c(N)no[n+]2[O-])n1	-31	nt	91	66
CC(C#N)(NC(=O)CSc1nnc(-c2ccc(Br)cc2)n1C1CCCCC1)C1CC1 (configuration not stated)	-1	nt	105	97
CCOc1ccc(CNc2nc3ccccc3n2C)cc1OC	-9	108	97	85
O=C(Nc1ccncc1)c1cc([N+](=O)[O-])ccc1Cl	-74&-73&-2&-2&-122	94	nt	nt
Cc1nc2sc(C(=O)OCC(=O)NCc3ccco3)c(C)c2c(=O)[nH]1	-10	nt	92	91
Cc1cc(C(=O)OCC(=O)N2CCc3ccccc3C2)c(C)o1	-36	nt	106	81
CN1CCN(CCCNc2nc(-c3ccccc3)no2)CC1	-16	100	112	91
CCN(C(=O)/C=C/c1cc(OC)c(OC)c(OC)c1)C1CCCCC1	-23	103	80	89
CC(C)(C)c1ccc(CSc2n[nH]c(=O)[nH]c2=O)cc1	-8	95	114	80
Cc1csc2nc(CSc3nnc(C(C)Oc4ccccc4F)o3)cc(=O)n12 (configuration not stated)	-32	nt	86	93
C=CCNC(=O)c1cnc2sccn2c1=O	8	104	nt	nt
COc1ccc(CCNC(=O)Cn2c(-c3cccs3)cc3cc(F)ccc32)cc1OC	-44	104	103	89
CCc1ccc(-c2nc(SCC(=O)NC(C)(C#N)C(C)C)n[nH]2)cc1 (configuration not stated)	-7	nt	107	93
CC(C)c1ccccc1NC(=O)CSc1nnc(COc2ccccc2)o1	-3	107	106	95
CCC(=O)C1=C(c2ccc(F)cc2)N(C(=O)CC)n2c(nnc2-c2ccc(OC)cc2)S1	nt	100	137	87
C=CCSc1nc2sc3c(c2c(=O)n1Cc1ccccc1)CC(C)(C)OC3	-22	104	nt	nt
Cc1ccc(CSc2nc3c(c(=O)[nH]2)C(c2cccc(F)c2F)CC(=O)N3)cc1 (configuration not stated)	8	104	84	99
Cc1cc2nc(C)c(=O)n(Cc3ccc(C(=O)NCCc4c[nH]c5ccc(Cl)cc45)cc3)c2cc1C	-16	132	nt	nt
CCOC(=O)c1c(C)c(-c2ccccc2)n(CC(=O)Nc2cc(C)cc(C)c2)c1C	-18	101	102	84
COc1ccc(CNC(=O)C(C)n2nc(C)c3sc4ccccc4c3c2=O)cc1OC (configuration not stated)	-1	108	93	96
c1ccc(COn2nnc3ccccc32)c(COn2nnc3ccccc32)c1	-29	99	76	66
Cn1nnnc1SCCNCc1ccc(Cl)c(Cl)c1	-18	111	97	86

Single records (already shown). Values in the order: HCMV NEC inh, GIV Gai3 FP, Sa growth 42C, Sa growth 42C second temp
Results for `Cc1ccc(CSc2nc3c(c(=O)[nH]2)C(c2cccc(F)c2F)CC(=O)N3)cc1` (configuration not stated) = 8, 104, 84, 99
Results for `CC(C)(C)c1ccc(CSc2n[nH]c(=O)[nH]c2=O)cc1` = -8, 95, 114, 80

(further entries)
Compound	HCMV NEC inh	GIV Gai3 FP	Sa growth 42C	Sa growth 42C second temp
CCOc1ccc2nc(SCC(=O)O)sc2c1	2	104	95	94
COc1ccc(Nc2cc(C(=O)NCCCN3CCN(C)CC3)c3ccccc3n2)cc1	-30	111	102	90
c1ccc(-c2cc(NC3CCCCC3)n3nc(-c4cccnc4)nc3n2)cc1	5	106	nt	nt
S=C(N/N=C\c1ccco1)Nc1ccccc1	-27	96	125	74
CCOC(=O)C1CCN(C(=O)COC(=O)c2ccc(-n3cnnn3)cc2)CC1	-16	nt	107	95
CCOc1ccc(C(=O)/C=C/c2cn(CC(O)CN3CCc4ccccc43)c3ccccc23)cc1 (configuration not stated)	0	104	124	79
COc1ccc2c(CC(=O)OCc3cc(Cl)c4c(c3)OCO4)coc2c1	-26	nt	121	93
CN(C(=O)c1nc2ncccn2n1)c1ccc(OC(F)(F)F)cc1	3	nt	94	97
COc1ccc(Nc2nc(-c3ccccc3F)nc3ccccc23)cc1OC	nt	105	74	59
N#C/C(=C\c1ccccc1Cl)S(=O)(=O)c1ccc(Cl)cc1	-35	102	105	86
CCCCN(Cc1ccco1)C(=O)c1noc2c1CCCC2	-34	95	80	80
COc1ccc(OC)c(NC(=O)NCCCn2c(-c3ccc(F)cc3)nc3cccnc32)c1	-15	103	nt	nt
O=C(NC1CC2CCC1C2)c1ccc(CN2CCOCC2)cc1 (configuration not stated)	nt	101	86	97
O=C(NCc1cccnc1)c1cnn2c(C(F)(F)F)cc(-c3ccccc3)nc12	-72	101	nt	nt
CN(CCC#N)C(=O)c1ccc2c(=O)n3c(nc2c1)CCCCC3	5	104	108	86
O=C(CCn1cnc2onc(-c3ccccc3Cl)c2c1=O)N1CCc2ccccc21	3	110	nt	nt
O=C(c1ccc(S(=O)(=O)N2CCOCC2)cc1)N(Cc1ccccn1)c1nc2ccccc2s1	-10	108	92	94
O=C(NC1CCCCC1)C1c2ccccc2C(=O)N2CCc3ccccc3C12 (configuration not stated)	nt	98	115	83
CCOC(=O)c1c(NC(=O)C(C)Oc2ccccc2F)sc(C(C)=O)c1C (configuration not stated)	-32	108	85	87
COc1ccc(-c2cn3c(c2C)-c2ccc(C)n2CC3)cc1	-73	178	89	65
CCOC(=O)C1=C(C)N=c2s/c(=C/c3ccc(NC(C)=O)cc3)c(=O)n2C1c1ccccc1OC(C)C (configuration not stated)	-8	105	nt	nt
Oc1ccc(Br)cc1-c1nc2ccccc2s1	-1	nt	93	90
Cc1cc(N2CCOCC2)nc(SCC(=O)NCc2ccco2)n1	-30	106	89	75
Cc1cc(NC(=O)CN2CCCCC2)no1	10	98	92	99
COc1ccc(/C=C2\SC(=O)N(CNc3cccc(C(F)(F)F)c3)C2=O)cc1	-30	99	nt	nt
CN1C(=O)S/C(=C\c2ccc(I)cc2)C1=O	5	96	117	107
CCOc1ccccc1NC(=O)C(CC(C)C)NC(=O)C1CCCCC1 (configuration not stated)	-14	97	85	79
Cc1ccc(S(=O)(=O)N2CCCC(c3nc(-c4cccnc4)no3)C2)cc1 (configuration not stated)	-16	105	nt	nt
O=C(c1ccc(Br)s1)N1CCCC1	2	109	126	102
N#C/C(=C/c1cn(Cc2ccc(C(=O)O)o2)c2ccccc12)c1ccc(F)cc1	-175	100	61	22
COc1cc(/C=C2\SC(=S)NC2=O)ccc1OCc1cccc2ccccc12	nt	112	130	81
Cc1ccccc1C(=O)c1cccn1CC(=O)NCc1ccc(Cl)cc1	-5	102	106	81
C=CCN(CC=C)c1cc(CCC)nc2nc(-c3cccnc3)nn12	-20	112	nt	nt
Cc1ccc(-c2onc(C)c2C)cc1S(=O)(=O)N1c2ccccc2CC1C (configuration not stated)	nt	105	109	90
Cc1csc(=O)n1CCC(=O)OCc1cc(=O)n2cc(Br)ccc2n1	-20	nt	99	100
Cn1c(=O)c2c(nc(NCCc3ccccc3)n2Cc2ccc(Cl)cc2)n(C)c1=O	-24	105	100	89
CC1(C)CC(=O)C=C(Nc2ccc(C(=O)O)cc2)C1	1	nt	83	91
CC1Cc2ccccc2N1C(=O)c1cc2n(n1)C(C(F)(F)F)CC(c1ccco1)N2 (configuration not stated)	25	106	114	94
O=C(/C=C/c1ccc(Cl)cc1)OCC(=O)N1CCCCC1	-30	nt	109	92
COc1cc(/C=C/C(=O)C(C)(C)O)cc(OC)c1OC	0	100	108	88
COCCNc1c(-c2ccc(OC)c(OC)c2)nc2ccc(Cl)cn12	-47	106	114	77
CC(=O)N1CCN2C(=O)C1CCCC(=O)c1cc(C3CCCCC3)ccc12 (configuration not stated)	-4	nt	107	89
CN(C(=O)COC(=O)C1(c2ccccc2F)CCCC1)c1ccccc1	9	nt	107	99
CCOC(=O)c1cnc2ccccc2c1Nc1cccc(OC)c1	nt	101	82	65
CCCOc1nnc(-c2ccc(C)c(S(=O)(=O)N(C)C)c2)c2ccccc12	3	94	93	97
O=C(O)CSCc1cn2ccccc2n1	-13	nt	130	84
Cc1cccc(Cn2c(=O)n(Cc3ccccc3)c(=O)c3c2c2cc(C)ccc2n3C)c1	nt	108	117	95
CCOc1ccc(NC(=O)CCc2nnc(C(=O)Nc3cccc(Cl)c3)s2)cc1	3	114	nt	nt
CSc1ncc(C(=O)NC(C)C)c(-c2ccccc2)n1	-24	106	98	88
COc1ccc(N(C)C(=O)c2cn(C3CCCCC3)c(=O)c3c2c2ccccc2n3C)cc1	-14	99	99	71

(list continues)
Compound	HCMV NEC inh	GIV Gai3 FP	Sa growth 42C	Sa growth 42C second temp
CC1=C(C(=O)Nc2ccccc2)C(c2ccccn2)n2nc(SCc3ccccc3)nc2N1 (configuration not stated)	-6	102	112	92
COc1ccc(C(=O)Oc2ccc(/C=c3/sc4nc5ccccc5n4c3=O)cc2)cc1	-13	97	nt	nt
Cc1cc2c(cc1S(=O)(=O)CCC(=O)N1CCC(C)CC1)OCC(=O)N2	nt	107	85	83
CCN1/C(=C2\C(=O)N(C)C(=S)N2c2ccccc2)C=Cc2ccccc21	nt	98	98	86
COc1ccccc1CC(=O)NC1CCCC1	-14	nt	98	90
Cc1cc(C(=O)CSc2nc3ccccc3n2-c2ccccc2)c(C)n1-c1nccs1	-4	nt	113	98
CN(CC(=O)N1CCN(c2ccccc2F)CC1)S(=O)(=O)c1c[nH]c(C(=O)N2CCCCC2)c1	-12	102	nt	nt
O=S(=O)(c1ccc(C(F)(F)F)cn1)c1cccs1	-6	100	95	76
CS(=O)(=O)N1CCCc2cc(C(=O)N3CCOCC3)ccc21	-14	103	112	88
O=C(CCC1N=C2c3ccccc3N=C(SCc3cccc(F)c3)N2C1=O)NCc1cccs1 (configuration not stated)	nt	96	86	90
c1ccc2[nH]c(NC3=NCCC3)nc2c1	-36	nt	120	85
CN(CCC(=O)Nc1ccc2c(c1)OCO2)Cc1ccccc1	-11	nt	92	85
CCC(Sc1nc2ccncc2[nH]1)C(=O)Nc1ccccc1F (configuration not stated)	5	106	132	94
CCN(CC)CCNC(=O)c1sc2nc3n(c(=O)c2c1C)CCCCC3	3	97	82	88
COc1ccc(CC(=O)Nc2cccc3nsnc23)cc1	-47	104	nt	nt
OCc1nc2ccccc2n1CCOc1cccc(Cl)c1	-10	98	120	95
CCOC(=O)Cc1csc(NC(=O)CSc2ccccn2)n1	4	104	110	99
COc1cccc(CC(=O)NCCc2nc(-c3ccccc3)n[nH]2)c1	-12	100	nt	nt
Cc1ccc(-c2ccc(OC(F)F)cc2)cc1	-13	nt	87	95
CCOC(=O)c1oc2ccccc2c1COC(=O)c1ccc(OCC)c(OC)c1	-37	nt	87	85
COc1cc(NC(=O)Cn2c(=O)n(C(C)C)c(=O)c3oc4ccccc4c32)cc(OC)c1	nt	102	100	92
CCOC(=O)c1c(Nc2cccc(Cl)c2Cl)n[nH]c1C	5	102	105	108
CCN1CCN(CCC(=O)Nc2ccc(OC)cc2)CC1	-12	100	94	107
COc1ccc(CCNc2nc(C)nc3sc(C)c(C)c23)cc1OC	-11	106	nt	nt
CCOC(=O)N1CCN(C(=O)CSC2=C(C#N)C(C)(C)C(C#N)C(=O)N2)CC1 (configuration not stated)	-27	nt	101	92
COc1cc(CNc2ccc3[nH]c(=O)[nH]c3c2)cc(Br)c1OCc1ccc(F)cc1	8	107	93	102
COc1ccc(CNC(=O)C2CCCN(c3ccc4cc(S(=O)(=O)N5CCCC5)ccc4n3)C2)cc1 (configuration not stated)	-20	105	nt	nt
C=CCNC(=O)c1cc(-c2ccc(OC)cc2)on1	nt	105	107	89
COC(=O)c1ccc(N(Cc2ccccc2)S(=O)(=O)c2ccccc2)cc1	nt	99	99	90
COc1ccc(NC(=O)CSC2=Nc3ccccc3N=C(c3cccc(Cl)c3)C2)cc1OC	-31	102	nt	nt
COc1ccc(C)cc1NC(=O)C1CCCN(c2ncnc3onc(C)c23)C1 (configuration not stated)	nt	102	79	88
O=S1(=O)N=C(N/N=C/c2ccccc2F)c2ccccc21	-55	100	65	59
COc1ccc(C(=O)N2CCC2)cc1S(=O)(=O)NCc1ccc(Cl)cc1	-7	nt	92	88
Nc1nc(-c2ccccc2Cl)nn1C(=O)C1CC1	-5	105	nt	nt
Cc1ccn2c(=O)cc(COc3ccc(NC(=O)COc4ccccc4)cc3)nc2c1	nt	101	88	86
Cc1ccc(/C=C/c2onc(C)c2S(=O)(=O)N2CCC(C(=O)N3CCN(c4cc(C)ccc4C)CC3)CC2)cc1	nt	102	113	97
CC(O)CN=Cc1cc2ccccc2nc1Cl (configuration not stated)	-86	nt	103	85
Nc1nc2c(c(=O)[nH]1)C(c1cccc(F)c1)CC(=O)N2 (configuration not stated)	-9	105	nt	nt

Screening results as filed in PubChem BioAssay.

Not a hit list; any-hit rate near 0.82%.
